# Assay outcomes as filed in PubChem BioAssay.
# STAT3 binder: binds human STAT3 on microarray; Small molecule microarray, His-STAT3 binding, anti-His fluorescence; calls only; 17,000 compounds, 0.2% hits; AID 624138;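 active = compounds whose four printed spots each show fluorescence over background unusually high for their array block, chance value under 7%; compounds were printed on slides so no solution concentration is given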;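 note: about 2 pmol printed per array spot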
# Myc binder: binders of human c-Myc; calls only; P01106; small molecule microarray, His-c-Myc binding, anti-His fluorescence; 17,000 compounds, 1.5% hits;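 active = spot fluorescence over background with P-value below 7% in all four replicate spots, showing protein binding; compounds were printed on slides so no solution concentration is given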;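 note: score is binary with 100 for all four spots passing and 0 otherwise; about 2 pmol printed per array spot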
# Target sequence (P01106 whole entry, looked up): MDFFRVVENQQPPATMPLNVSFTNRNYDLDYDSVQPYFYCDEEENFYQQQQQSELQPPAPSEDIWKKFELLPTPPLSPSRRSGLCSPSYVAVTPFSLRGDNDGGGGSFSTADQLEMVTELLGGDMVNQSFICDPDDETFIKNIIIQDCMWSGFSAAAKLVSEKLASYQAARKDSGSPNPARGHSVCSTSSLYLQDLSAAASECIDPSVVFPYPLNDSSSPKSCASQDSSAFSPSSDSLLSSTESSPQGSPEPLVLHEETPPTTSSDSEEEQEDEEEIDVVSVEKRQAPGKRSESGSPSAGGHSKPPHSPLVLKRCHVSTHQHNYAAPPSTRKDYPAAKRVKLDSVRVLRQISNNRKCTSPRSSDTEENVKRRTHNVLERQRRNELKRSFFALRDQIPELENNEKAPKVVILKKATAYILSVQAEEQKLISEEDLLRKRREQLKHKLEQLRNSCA
# mut p53 SMM: mutant p53 (human) binding; small molecule microarray binding, anti-GST fluorescence; calls only; 17,000 compounds, 0.4% hits; AID 624136;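 active = compounds whose four printed spots each glow above background more than chance allows, each with a p-value under 7%; compounds were printed on slides so no solution concentration is given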;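 note: about 2 pmol printed per array spot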
# ID4 SMM: binds human ID4 protein on microarray | small molecule microarray, Flag-ID4 binding, fluorescence F/B | calls only | P47928 | 31,000 compounds, 1.2% hits;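 active = spot signal over background at p below 0.07 in all four prints; compounds were printed on slides so no solution concentration is given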;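 note: a binder raises fluorescence above local background on the spot; about 2 pmol printed per array spot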
# Target sequence (P47928 whole entry, looked up): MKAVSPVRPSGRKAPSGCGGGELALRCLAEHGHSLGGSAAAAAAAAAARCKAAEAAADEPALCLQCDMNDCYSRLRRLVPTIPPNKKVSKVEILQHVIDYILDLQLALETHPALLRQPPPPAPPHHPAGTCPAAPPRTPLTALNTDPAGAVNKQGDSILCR
# Calls only; i = inactive; nt = no result given; + = active, no number.
SMILES	mut p53 SMM	ID4 SMM	STAT3 binder	Myc binder
C[C@H]1CN([C@@H](C)CO)C(=O)c2cc(NC(=O)CCC(F)(F)F)ccc2O[C@H]1CN(C)C	i	i	i	i
CC(C)NC(=O)Nc1cccc2c1O[C@@H](CN(C)Cc1ccc(Cl)c(Cl)c1)[C@@H](C)CN([C@@H](C)CO)C2=O	i	i	i	i
Cn1c(=O)c2c(nc(NCCN)n2Cc2ccc(Cl)cc2)n(C)c1=O	i	i	i	i
C[C@@H]1CN([C@H](C)CO)C(=O)c2cc(NC(=O)NC3CCCCC3)ccc2O[C@@H]1CN(C)S(=O)(=O)c1ccccc1	i	i	i	i
COc1cc(NC(=O)Cn2nc(C(F)(F)F)cc2C)cc([N+](=O)[O-])c1	i	i	i	i
C=C[C@H]1[C@H](OC2OC(CO)C(O)C(O)C2O)OC=C(C(=O)OC)[C@H]1CCOC(=O)c1cc(O)c(O)c(O)c1 (stereo partly specified)	i	nt	i	i
CNC[C@@H]1Oc2c(NS(=O)(=O)c3cccs3)cccc2C(=O)N([C@@H](C)CO)C[C@H]1C	i	i	i	i
COc1ccc(S(=O)(=O)N(C)C[C@@H]2Oc3ccc(NC(=O)c4ccncc4)cc3C(=O)N([C@@H](C)CO)C[C@H]2C)cc1	i	i	i	i
O=C1O[C@@H](c2ccccc2)[C@@H](c2ccccc2)N2[C@@H](c3ccccc3OCCO)[C@]3(C(=O)Nc4ccc(C#CC5(O)CCCCCC5)cc43)[C@@H](C(=O)N3CCCCCCC3)[C@H]12	i	nt	i	i
COc1ccc([Si](C)(C)[C@H]2[C@H](CCO)O[C@@]3(C(=O)N(Cc4ccccc4)c4ccc(NC(=O)[C@H](C)O)cc43)[C@@H]2C)cc1	+	nt	i	i
COc1ccc2nc(SCC3=CC(C)(C)N(C(C)=O)c4ccccc43)nc(C)c2c1	i	i	i	i
C[C@H](CO)N1C[C@H](C)[C@H](CN(C)C)OCCCC[C@H](C)Oc2ccc(NC(=O)Nc3ccc(C(F)(F)F)cc3)cc2C1=O	i	i	i	i
C[C@@H]1CN([C@@H](C)CO)C(=O)Cc2cc(NS(=O)(=O)c3cccs3)ccc2O[C@H]1CN(C)Cc1ccccc1	i	i	i	i
Cc1ccc(S(=O)(=O)N2CCCC2C(=O)NCCO)cc1 (stereo unspecified)	i	i	i	i
CCCN(C)C[C@H]1OCCCC[C@@H](C)Oc2ccc(NS(=O)(=O)c3ccc(Cl)cc3)cc2C(=O)N([C@@H](C)CO)C[C@H]1C	i	nt	i	i
COc1ccccc1NC(=O)N(C)C[C@H]1OCc2cnnn2CCCC(=O)N([C@@H](C)CO)C[C@H]1C	i	i	i	i
C[C@@H]1CN([C@@H](C)CO)C(=O)c2cc(NS(=O)(=O)c3cccs3)ccc2O[C@H]1CN(C)Cc1ccc(-c2ccccc2)cc1	i	i	i	i
COc1ccc(S(=O)(=O)Nc2cccc3c2O[C@@H](CN(C)C)[C@H](C)CN([C@@H](C)CO)C3=O)cc1	i	i	i	i
NC(=O)c1c(NC(=O)C2CC(=O)OC23CCCCC3)sc2c1CCCCC2 (stereo unspecified)	i	i	i	i
O=C(Nc1ccccc1C(=O)NCc1cccnc1)c1cccc([N+](=O)[O-])c1	i	i	i	i
COc1ccc(CN(C)C[C@@H]2Oc3ccc(NC(=O)Nc4c(C)noc4C)cc3CC(=O)N([C@H](C)CO)C[C@@H]2C)cc1	i	i	i	i
C[C@H](CO)N1C[C@H](C)[C@H](CN(C)Cc2ccncc2)OCCCC[C@H](C)Oc2ccc(NS(=O)(=O)c3ccccc3)cc2C1=O	i	i	i	i
Cc1noc(C)c1S(=O)(=O)N(C)C[C@H]1OCCCC[C@H](C)Oc2ccc(N(C)C)cc2C(=O)N([C@@H](C)CO)C[C@@H]1C	+	i	i	i
COc1ccc(-c2cc(=O)c3c(O)cc(O)cc3o2)cc1	i	nt	i	i
COC(=O)[C@]1(Cc2ccccc2CN=[N+]=[N-])N=C(c2ccc(OCCCO)cc2)O[C@@H]1c1ccccc1N=[N+]=[N-]	i	i	i	i
COc1ccc(CN(C)C[C@@H]2Oc3ccc(NC(=O)c4ccncc4)cc3C(=O)N([C@@H](C)CO)C[C@@H]2C)cc1	i	i	i	i
Cc1cc(C)c(NC(=O)CSc2nc3c(c(-c4ccco4)c2C#N)CCCC3)c(C)c1	i	i	i	i
COc1cc(C[C@@H]2COC(c3ccc(O[C@@H]4O[C@H](CO)[C@@H](O)[C@H](O)[C@H]4O)c(OC)c3)[C@@H]2CO)ccc1O[C@@H]1O[C@H](CO)[C@@H](O)[C@H](O)[C@H]1O (stereo partly specified)	i	i	i	i
COc1c(-c2ccccc2)oc2c(OC)c(O)cc(O)c2c1=O	i	i	i	i
CC(C)C[C@@H](C=O)NC(=O)[C@H](CC(C)C)NC(=O)[C@H](CC(C)C)NC(=O)OCc1ccccc1	i	i	i	i
CC(C)NC(=O)N(C)C[C@@H]1OCCCC[C@H](C)Oc2ccc(NC(=O)Nc3ccc(F)cc3)cc2C(=O)N([C@H](C)CO)C[C@@H]1C	i	i	i	i
C[C@@H]1CN([C@H](C)CO)C(=O)c2cccc(N(C)C)c2O[C@H]1CN(C)C	i	i	i	i
NC(=O)CN(c1cc(Cl)ccc1Cl)S(=O)(=O)c1ccccc1	i	i	i	i
CSc1ccccc1NC(=O)CSc1nnnn1-c1ccccc1F	i	i	i	i
C[C@@H]1CCCCO[C@@H](CN(C)C(=O)c2ccccc2)[C@H](C)CN([C@H](C)CO)C(=O)c2cc(NC(=O)Nc3ccc(F)cc3)ccc2O1	i	i	i	i
COc1ccc(CN(C)C[C@@H]2OCCCC[C@H](C)Oc3ccc(NC(=O)Nc4c(C)noc4C)cc3C(=O)N([C@H](C)CO)C[C@@H]2C)cc1	i	i	i	i
O=C(NCc1ccccc1)[C@@]1(CCS(=O)(=O)c2ccccc2)N=C(c2ccc(OCCCO)cc2)O[C@H]1c1ccccc1	i	nt	i	i
COc1ccc(CN2C(C)C3C(C)=CC2C2C(=O)N(C)C(=O)C32)cc1 (stereo unspecified)	i	i	i	i
CCCN(C)C[C@@H]1Oc2ncc(/C=C/c3ccccc3)cc2C(=O)N([C@H](C)CO)C[C@@H]1C	i	i	i	i
CCn1nnc(NC(=O)COc2ccc(Cl)cc2C)n1	i	i	i	i
C[C@@H]1CCCCO[C@H](CN(C)C(=O)c2ccccc2)[C@@H](C)CN([C@H](C)CO)C(=O)c2cc(NC(=O)Nc3ccc(F)cc3)ccc2O1	i	i	i	i
C[C@H](CO)N1C[C@H](C)[C@@H](CN(C)S(=O)(=O)c2cccs2)Oc2ccc(NC(=O)Nc3ccc(C(F)(F)F)cc3)cc2C1=O	i	nt	i	i
Cc1nc(SCC(N)=O)c(C(N)=O)c(C)c1C	i	i	i	i
Cc1noc(C)c1NC(=O)Nc1ccc2c(c1)CC(=O)N([C@@H](C)CO)C[C@@H](C)[C@H](CN(C)C(=O)Nc1cccc3ccccc13)O2	i	i	i	i
CC(C)=CCC[C@](C)(O[C@@H]1O[C@H](CO[C@@H]2O[C@@H](CO)[C@H](O)[C@H]2O)[C@@H](O)[C@H](O)[C@H]1O)[C@H]1CC[C@]2(C)C1[C@H](O)CC1[C@@]3(C)CC[C@H](O[C@@H]4O[C@H](CO)[C@@H](O)[C@H](O)[C@H]4O[C@@H]4O[C@H](CO)[C@@H](O)[C@H](O)[C@H]4O)C(C)(C)C3CC[C@]12C (stereo partly specified)	i	i	i	+
C[C@H]1CN([C@@H](C)CO)C(=O)c2cc(NC(=O)Cc3ccccc3)ccc2O[C@H]1CN(C)S(=O)(=O)c1ccc(Cl)cc1	i	nt	i	i
NC(=O)N/N=C/c1ccc(Oc2ccc(F)cc2)cc1	i	i	i	i
CNC[C@@H]1Oc2ccc(NC(=O)Nc3cccc4ccccc34)cc2CC(=O)N([C@H](C)CO)C[C@H]1C	i	i	i	i
C[C@@H]1CN([C@H](C)CO)C(=O)Cc2cc(NC(=O)Cc3cn(C)c4ccccc34)ccc2O[C@H]1CN(C)Cc1ccncc1	i	i	i	i
CC(=O)OCC1=C[C@H](O)[C@@H]2C(C(=O)O)=CO[C@@H](O[C@@H]3O[C@H](CO)[C@@H](O)[C@H](O)[C@H]3O)[C@H]12	i	i	i	i

# The final 4 entries of the section before open the next one:
SMILES	mut p53 SMM	ID4 SMM	STAT3 binder	Myc binder
NC(=O)N/N=C/c1ccc(Oc2ccc(F)cc2)cc1	i	i	i	i
CNC[C@@H]1Oc2ccc(NC(=O)Nc3cccc4ccccc34)cc2CC(=O)N([C@H](C)CO)C[C@H]1C	i	i	i	i
C[C@@H]1CN([C@H](C)CO)C(=O)Cc2cc(NC(=O)Cc3cn(C)c4ccccc34)ccc2O[C@H]1CN(C)Cc1ccncc1	i	i	i	i
CC(=O)OCC1=C[C@H](O)[C@@H]2C(C(=O)O)=CO[C@@H](O[C@@H]3O[C@H](CO)[C@@H](O)[C@H](O)[C@H]3O)[C@H]12	i	i	i	i
COc1ccc2nc(Nc3nc(C)c(CCC(C)C)c(=O)[nH]3)nc(C)c2c1	i	i	i	i
C[C@H](CO)N1C[C@H](C)[C@@H](CN(C)C)OCCCC[C@H](C)Oc2ccc(NC(=O)Nc3ccc4c(c3)OCO4)cc2C1=O	i	i	i	i
CNC[C@H]1OCCCC[C@H](C)Oc2ccc(NS(=O)(=O)c3c(C)noc3C)cc2C(=O)N([C@H](C)CO)C[C@H]1C	i	i	i	i
C[C@H]1CN([C@@H](C)CO)C(=O)c2cc(NC(=O)NC3CCCCC3)ccc2O[C@@H]1CN(C)S(=O)(=O)c1cn(C)cn1	i	i	i	i
C[C@H](CO)N1C[C@H](C)[C@H](CN(C)C(=O)Nc2ccc(N3CCN(C)CC3)cc2)OCc2cnnn2CCCC1=O	i	i	i	i
C[C@H]1CN([C@@H](C)CO)C(=O)Cc2cc(NC(=O)Cc3cn(C)c4ccccc34)ccc2O[C@H]1CN(C)C(=O)NC1CCCCC1	i	i	i	i
C[C@@H]1CN([C@@H](C)CO)C(=O)c2cc(NS(=O)(=O)c3ccccc3)ccc2O[C@@H](C)CCCCO[C@H]1CN(C)C(=O)CCCN(C)C	i	i	i	i
CCS(=O)(=O)n1nc(-c2ccccc2)nc1NCc1ccco1	i	i	i	i
CCOC(=O)c1ccc(NC(=O)Cn2nc(C)c([N+](=O)[O-])c2C)cc1	i	i	i	i
COc1ccc(CN(C)C[C@H]2Oc3c(NC(=O)c4cc(C)nn4C)cccc3C(=O)N([C@@H](C)CO)C[C@@H]2C)cc1	i	i	i	i
CC(=O)c1cccc(N(CC(=O)N2CCCC2)S(C)(=O)=O)c1	i	i	i	i
C[C@@H]1CCCCO[C@H](CN(C)C)[C@H](C)CN([C@@H](C)CO)C(=O)c2cc(NC(=O)Nc3ccc(C(F)(F)F)cc3)ccc2O1	i	i	i	i
Cc1cc(I)ccc1Nc1c(C(=O)NOCC2CC2)cc(F)c(F)c1F	i	i	i	i
C[C@H](CO)N1C[C@H](C)[C@@H](CN(C)Cc2ccc3c(c2)OCO3)Oc2c(NC(=O)c3ccncc3)cccc2C1=O	i	i	i	i
Cc1ccc(-c2nc(SCC(=O)Nc3cc(C)c(C)cc3Br)n[nH]2)cc1	i	i	i	i
C[C@H]1CN([C@@H](C)CO)C(=O)CCCn2cc(nn2)CO[C@@H]1CN(C)C(=O)CCCN(C)C	i	i	i	i
C=CC1CN(C=O)CCC1CCC(=O)c1ccnc2ccccc12 (stereo unspecified)	i	i	i	i
C[C@H]1CN([C@@H](C)CO)C(=O)CCCn2nncc2CO[C@@H]1CN(C)C	i	i	i	i
C=C[C@](C)(CC/C=C(\C)CC[C@H](O)C(C)(C)O)O[C@@H]1O[C@H](CO)[C@@H](O)[C@H](O)[C@H]1O	i	nt	i	i
CCO[C@@H]1OC(C(=O)NC2CC2)=C[C@H](c2ccccc2)[C@H]1CCCO	i	i	i	i
O=C(COc1ccc(Cl)cc1Cl)Nc1ccccc1CO	i	i	i	i
C[C@@H]1CN([C@H](C)CO)C(=O)Cc2cc(NC(=O)C3CC3)ccc2O[C@H]1CN(C)Cc1ccc2c(c1)OCO2	i	i	i	i
C[C@H](CO)N1C[C@H](C)[C@@H](CN(C)S(=O)(=O)c2ccc(Cl)cc2)OCCCC[C@H](C)Oc2ccc(NC(=O)Nc3cccc4ccccc34)cc2C1=O	i	nt	i	i
C[C@H](CO)N1C[C@H](C)[C@@H](CN(C)C(=O)Nc2cccc3ccccc23)Oc2c(NC(=O)c3cnccn3)cccc2C1=O	i	i	i	i
Cc1ccc(-c2nn(C)c(=O)c3ccccc23)cc1S(=O)(=O)N1CCN(CCO)CC1	i	+	i	i
COc1ccc(S(=O)(=O)N(C)C[C@@H]2Oc3c(NS(=O)(=O)c4cccs4)cccc3C(=O)N([C@H](C)CO)C[C@@H]2C)cc1	i	i	i	i
C[C@@H]1CN([C@H](C)CO)C(=O)Cc2cc(NC(=O)Nc3ccc4c(c3)OCO4)ccc2O[C@@H]1CN(C)C(=O)NC1CCCCC1	i	i	i	i

# The list is partial, so the mix of outcomes need not match the whole.
